# High-throughput results (PubChem BioAssay)
# FGF22 binding: shifts melting point of recombinant human FGF22 | recombinant FGF22 thermal shift, SYPRO orange fluorescence; percent of sucrose octasulfate shift, DMSO zero | calls only at 9.99 µM | Q9HCT0 | hit rate 1.5% among 340,000;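 active = melting point raised past a set limit in the mean and every replicate; inconclusive = no clear call; three in four hits are not shown here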
# Target sequence (Q9HCT0 whole entry, looked up): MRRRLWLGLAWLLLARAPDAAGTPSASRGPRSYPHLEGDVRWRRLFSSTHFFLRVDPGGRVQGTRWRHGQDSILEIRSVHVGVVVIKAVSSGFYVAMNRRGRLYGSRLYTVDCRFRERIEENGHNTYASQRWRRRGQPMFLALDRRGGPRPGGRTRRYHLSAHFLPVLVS
# Vif TR-FRET: inhibitors of Vif binding to APOBEC3G peptide, primary screen, biochemical, TR-FRET, GST-Vif 1-94, biotin-A3G peptide, dose response retest (AID 1117319); TR-FRET GST-Vif / biotin-A3G peptide binding; higher % means a stronger effect; test concentration not given here; strong numbers were not always called active; one-dose inhibition, %; IC50 in µM for titrated hits; hit rate 0.57% among 260,000;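 active = above the screen mean plus three standard deviations and confirmed in dose response; inconclusive = results disagree or hit not tested in dose response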;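 also: Vif residues 1-94 fused to GST binding biotinylated APOBEC3G peptide 110-148; 0% = full assay without inhibitor and 100% = GST in place of GST-Vif; retest series ran down from 100 µM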
# MLL AF4-AF9 inh: blocks AF4 peptide binding to human AF9 | hit rate 0.47% among 350,000 | P42568 | inhibition, % at 10 µM | AlphaScreen, biotin-AF4 peptide binding to FLAG-AF9;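 active = every replicate reaching a set inhibition limit, whatever the replicate mean, cut at about 25% in these data; inconclusive = mean inhibition reaches that limit but some replicates miss it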;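 also: 0% = plate neutral control median and 100% = total signal loss; the record names both 10 and 1 µM as test concentration; the first replicate is given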
# E coli growth: blocks Escherichia coli growth. OD600, 23 h; stronger effect = lower value. OD600 absorbance (test concentration not listed). hit rate 0.21% among 330,000. AID 1053175;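 active = OD600 absorbance below the run mean of sample wells minus 3.6 SD, in any replicate, cut at about 0.56 in these data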;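 also: stock transfer was 300 nL into about 60 µL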
# UCH37 DUB inh: inhibitors of human deubiquitinating enzyme UCH37 | inhibition, % (no concentration beside the values) | Q9Y5K5 | purified proteasome/UCH37, Ub-AMC cleavage fluorescence | hit rate 0.33% among 330,000;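 active = mean of two replicates above 20%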;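 also: 0% = compound-free wells with enzyme and 100% = wells lacking proteasome; stock transfer was 100 nL into about 20 µL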
# Target sequence (Q9Y5K5 whole entry, looked up): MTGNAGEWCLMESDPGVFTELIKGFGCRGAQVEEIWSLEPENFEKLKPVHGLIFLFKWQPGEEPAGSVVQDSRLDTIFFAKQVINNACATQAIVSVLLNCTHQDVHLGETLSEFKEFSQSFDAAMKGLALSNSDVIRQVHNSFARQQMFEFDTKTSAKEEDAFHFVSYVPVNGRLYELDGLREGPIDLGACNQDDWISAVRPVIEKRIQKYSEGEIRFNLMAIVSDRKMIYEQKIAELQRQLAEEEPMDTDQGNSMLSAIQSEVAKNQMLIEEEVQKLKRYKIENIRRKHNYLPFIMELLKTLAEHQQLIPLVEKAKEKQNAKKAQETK
#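 Test system – human UCH37 enzyme supplied as purified proteasome complex · Incubation – 30 min preincubation with enzyme, 25 min cleavage at room temperature · Detection – AMC fluorescence from Ub-AMC cleavage, excitation 355 nm, emission 460 nm · Benchmarks – no-proteasome wells (full inhibition) and compound-free wells (no inhibition)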
# RanGTP-Impb inh: inhibitors of RanGTP-importin-beta interaction, primary screen, biochemical, FRET, CFP-Ran, YFP-importin-beta, homogeneous | hit rate 1.1% among 300,000 | cell-free CFP-Ran/YFP-importin-beta FRET ratio | inhibition, % (concentration not given with the values);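 active = most replicates above 15%; inconclusive = exactly half above 15%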;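 also: 0% = DMSO wells and 100% = Ran loaded with GDP instead of GTP; wells of about 40 µL received 100 nL stock; the first replicate is given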
# HNF4A DNA FP: change in binding of human HNF4 alpha to DNA | P41235 | HNF4a-FITC DNA binding, fluorescence polarization, 1 h | activity change, % at 10 µM | hit rate 0.3% among 360,000 | AID 1224865; in the data active = activity change above about 30%, passing the limit was not always enough;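 also: controls were the assay level and a saturating level of protein; the project sought stronger binding though the title names inhibitors; some compounds called inactive have numbers as strong as hits; positive values seem to mean higher polarization but the record does not say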
# Target sequence (P41235 whole entry, looked up): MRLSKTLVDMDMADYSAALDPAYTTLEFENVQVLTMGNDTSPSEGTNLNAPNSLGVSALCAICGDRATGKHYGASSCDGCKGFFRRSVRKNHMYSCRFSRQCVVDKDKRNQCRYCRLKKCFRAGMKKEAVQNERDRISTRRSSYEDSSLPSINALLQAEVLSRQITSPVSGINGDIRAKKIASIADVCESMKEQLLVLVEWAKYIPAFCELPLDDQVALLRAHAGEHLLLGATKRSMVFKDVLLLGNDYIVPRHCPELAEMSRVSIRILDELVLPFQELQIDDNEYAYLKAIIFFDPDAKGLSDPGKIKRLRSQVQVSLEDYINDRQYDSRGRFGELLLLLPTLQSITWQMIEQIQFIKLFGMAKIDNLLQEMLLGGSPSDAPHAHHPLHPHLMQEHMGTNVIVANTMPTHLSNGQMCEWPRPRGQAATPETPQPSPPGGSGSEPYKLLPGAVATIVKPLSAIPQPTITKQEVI
# * hit, by the source's call; i = inactive; u = inconclusive; x = no result given. Some of the compounds tested; the hit share may differ from the screen's.
no.	SMILES	E coli growth	RanGTP-Impb inh	HNF4A DNA FP	Vif TR-FRET	FGF22 binding	UCH37 DUB inh	MLL AF4-AF9 inh
1	CCOc1ccc(N2CC(C(=O)Nc3cccc(S(=O)(=O)NC4=NCCC4)c3)CC2=O)cc1 (stereo unspecified)	0.703	5.1	-2.4	x	i	4.9	0.8
2	Nc1nnc(CSCc2ccc(Cl)cc2)s1	0.691	2.4	3.1	31.3%	x	4.7	x
3	COc1ccc(S(=O)(=O)N2CCC(C(=O)NC3CC3)CC2)cc1C	0.676	3.9	3.8	x	i	2.6	-3.7
4	CCOc1ccc(NC(=O)CCC(=O)NNC(=O)COc2ccc(C)cc2Br)cc1	0.685	-0.7	0.4	x	i	4.6	1.9
5	COc1ccc(NC(=O)Nc2ccc3nonc3c2)cc1	0.683	-0.5	0.1	15.1%	i	0.2	-0.3
6	CC(=O)c1cccc(NC(=O)C2C(c3ccccc3)C2(Cl)Cl)c1 (stereo unspecified)	0.66	x	0.8	7.5%	i	2.3	-0.9
7	O=C(C(Br)=Cc1ccccc1)c1ccccc1	0.655	x	-1.7	12.7%	i	4.7	3.0
8	CC(NCC(=O)Nc1cc(S(=O)(=O)N2CCOCC2)ccc1Cl)c1ccc(Cl)cc1Cl (stereo unspecified)	0.707	x	1.7	4.2%	i	4.8	-13.1
9	COC(=O)c1c(C)noc1-c1cc(C)on1	0.664	1.2	-0.1	-1.4%	x	0.4	x
10	CCn1cc(/C=C(\NC(=O)c2ccccc2OC)C(=O)N2CCOCC2)c2ccccc21	x	x	-3.7	4.8%	i	x	4.9
11	CCOC(=O)c1c(C)[nH]c(C(=O)COC(=O)C23CC4CC(CC(Cl)(C4)C2)C3)c1C	0.67	0.4	-0.4	-2.3%	x	0.4	x
12	CS(=O)(=O)CCC(C(=O)N1CCOCC1)N1C(=O)c2cc(Cl)c(Cl)cc2C1=O (stereo unspecified)	0.721	-3.3	-0.3	2.2%	x	3.9	x
13	CS(=O)(=O)N1CCC(C(=O)N2CCc3ccccc3C2)CC1	0.677	3.5	5.8	3.0%	x	2.8	x
14	COc1ncnc2c1NC(=O)CS2	0.713	1.9	-1.9	3.2%	x	-1.8	x
15	CCOc1ccc(CC(=O)OCn2nnc3ccccc3c2=O)cc1	0.705	-0.9	1.5	-2.8%	i	5.6	-0.5
16	Cn1cnnc1SCC(=O)n1c2ccccc2c2ccccc21	0.752	-1.2	2.4	-5.7%	x	7.1	x
17	CCOC(=O)c1c(CSc2nc(C)cc(C)c2C#N)n(C)c2cc(Br)c(OC(C)=O)cc12	0.778	3.3	-0.2	-41.3%	x	1.4	x
18	CC1=C(C(=O)OCc2ccccc2)C(c2ccccc2OS(=O)(=O)c2ccc(C)cc2)NC(=O)N1CCCC(=O)O (stereo unspecified)	0.656	5.3	x	x	i	0.6	0.0
19	COc1cc(/C=N/NC(=O)C2c3ccccc3Oc3ccccc32)ccc1O	x	-2.6	0.4	-0.7%	x	x	x
20	COC(=O)c1cc(S(=O)(=O)NCc2cccc(OC)c2)cn1C	0.69	u	5.2	x	i	0.9	-0.1
21	CSc1ccc(S(=O)(=O)NCC(=O)OCC(=O)NCc2ccco2)cc1[N+](=O)[O-]	0.678	-0.1	0.4	2.2%	i	3.6	0.5
22	COc1ccccc1-c1nc2ccccc2nc1-c1ccccc1	0.662	u	7.8	16.1%	i	-3.6	-4.1
23	COc1ccc(-c2cc3c(=O)n(CC(=O)N4CCCC4)ncn3n2)cc1	0.677	2.2	0.1	x	i	-1.9	-1.6
24	O=c1[nH]c2cc3c(cc2cc1C(c1nnnn1CC1CCCO1)N1CCCCCC1)OCCO3 (stereo unspecified)	0.635	-0.6	4.7	19.3%	x	-33.4	x
25	Cc1ccccc1C(=O)NC(=S)Nc1ccc(Cc2ccncc2)cc1	0.677	3.5	3.6	x	x	0.0	x
26	COc1ccccc1CNC(=O)COC(=O)C12CC3CC(CC(O)(C3)C1)C2	0.685	x	-1.4	3.5%	i	0.5	-2.0
27	CC(=O)Oc1ccc(N(C(C)=O)S(=O)(=O)c2ccccc2)c2ccccc12	x	x	-1.6	x	i	x	-1.9
28	O=C(NC1CCN(C(=S)NCc2ccco2)CC1)C1CCCCC1	0.642	-1.0	2.6	2.6%	x	0.5	x
29	COc1cc(S(=O)(=O)NCCCn2ccnc2)ccc1Cl	0.658	u	1.0	x	i	0.9	2.7
30	COc1ccc(CCc2cc(OC)c(OC)c(OC)c2)cc1	x	x	8.0	-1.3%	i	x	-1.4
31	Cn1ccc(C(=O)Nc2ccc3c(c2)OCCO3)n1	0.709	-1.3	-1.1	0.1%	i	-1.0	-1.2
32	COc1ccc(C2NC(=O)CCC2[N+](=O)[O-])c(OC)c1 (stereo unspecified)	x	-1.0	2.3	3.8%	i	x	-2.2
33	CC(=O)N/C(=C/c1ccc(OS(=O)(=O)c2ccc(C)cc2)cc1)C(=O)NCCO	0.672	-1.2	3.4	-6.4%	i	2.6	12.7
34	C=C1C(C(=O)Nc2ccc(OC)cc2)C1C(=O)Nc1ccc(OC)cc1 (stereo unspecified)	0.708	0.3	-1.1	7.1%	i	2.9	-3.8
35	COCCCNC(=O)c1ccc(OC)c(OC2CCN(C(C)C)CC2)c1	0.643	-3.6	0.0	x	i	0.9	-10.0
36	O=C(CN1CCOCC1)Nc1ccc(F)cc1	0.667	6.0	3.1	-3.6%	i	-0.1	-2.2
37	CCCC12CN3CC(C)(CN(C1)C3c1ccc(OC)cc1)C2=O (stereo unspecified)	0.744	u	-2.3	-4.3%	x	-2.6	x
38	CC(C)Oc1ccc(CSc2nnc3n(C)c(=O)c4c5c(sc4n23)CCCC5)cc1	0.643	4.3	3.4	-3.7%	x	4.9	x
39	NC(=O)CC(NC(=O)Cc1ccc(Br)cc1)c1ccc(NCCc2ccc(F)cc2)c([N+](=O)[O-])c1 (stereo unspecified)	0.719	-1.4	21.6	x	i	2.5	6.8
40	CCCN(CC(=O)Nc1ccccc1C)C(=O)COc1ccc2c(c1)CCC2	0.72	3.1	3.0	-13.4%	i	3.1	14.9
41	CN1CCN(C(=O)c2ccccc2N(Cc2ccccc2)S(=O)(=O)c2ccccc2)CC1	0.715	x	-5.9	15.2%	i	0.8	-12.3
42	CCC(=O)NC(=S)Nc1ccc(N2CCOCC2)cc1	0.729	-2.1	1.5	5.3%	i	4.2	0.2
43	CCCCn1cnc2sc(-c3ccccc3)cc2c1=O	0.751	-0.8	-0.2	5.3%	x	-0.1	x
44	COc1ccc(-c2noc(CN(C)C(=O)CCN3C(=O)[C@H]4CC=CC[C@H]4C3=O)n2)cc1	0.633	3.8	1.7	3.0%	i	1.0	-26.5
45	COc1ccccc1NC(=O)CCCCC(=O)Nc1ccccc1OC	0.624	-2.6	-2.3	x	i	-1.0	4.4
46	COc1ccccc1OCC(=O)Nc1cc(C(F)(F)F)ccc1-n1cncn1	0.692	2.4	5.6	6.1%	x	3.7	-10.7
47	O=C(NCCC(=O)N1CCC2(CC1)NCCc1[nH]cnc12)c1ccc(Br)cc1	0.692	0.5	-2.8	-2.1%	i	3.7	0.1
48	COc1ccc(CNC(=O)C[C@H]2C[C@H](C(=O)N3CCOCC3)[C@@]3(C)c4[nH]c5cc(-c6ccco6)ccc5c4CCN3C2=O)cc1OC	0.705	x	2.9	x	i	-17.9	14.0
49	Cc1cccnc1C(NC(=O)C1CCN(CCCOc2ccccc2)CC1)c1ccc(F)cc1 (stereo unspecified)	x	x	4.5	x	i	x	-0.1
50	CC(C)(C)CNC(=O)C1(C)CCN1C(=O)C1(c2ccccc2)CC1 (stereo unspecified)	x	x	-0.6	x	i	x	-2.7

# The results go on:
no.	SMILES	E coli growth	RanGTP-Impb inh	HNF4A DNA FP	Vif TR-FRET	FGF22 binding	UCH37 DUB inh	MLL AF4-AF9 inh
51	CN(C(=O)c1ccccn1)c1nnc(-c2cccnc2)s1	0.671	x	-0.2	-2.5%	x	3.4	x
52	COc1ccc(CNC(=O)C2CCC(=O)N(C3CCCCCC3)C2)c(OC)c1 (stereo unspecified)	x	x	2.8	1.5%	i	x	3.9
53	CN(CC(=O)NC1CC1)S(=O)(=O)c1ccc(Br)cc1	0.647	u	-1.6	x	i	0.3	0.4
54	CCOC(=O)C1=CN(Cc2cccc(F)c2)S(=O)(=O)NC1c1ccc2ccccc2c1 (stereo unspecified)	0.709	x	-1.5	x	i	3.4	-2.7
55	Cn1c2ccccc2c2cc(/C=N/NC(=O)c3ccc(N)cc3)ccc21	x	-0.7	0.9	x	i	x	-1.4
56	FC(F)Oc1ccc(NC(=S)NC2CCSc3ccccc32)cc1 (stereo unspecified)	0.7	3.1	1.2	x	i	-1.9	0.0
57	COc1ccc(-n2c(SCC(=O)NCC3CCCO3)nc3n[nH]c(C)c3c2=N)cc1 (stereo unspecified)	0.705	-3.3	-2.5	2.2%	x	3.4	x
58	CCOC(=O)C(C)(C)N(Cc1ccc(Cl)cc1)S(=O)(=O)c1ccc(Cl)c([N+](=O)[O-])c1	0.727	-4.7	x	18.5%	x	6.5	x
59	CCc1cccc(C)c1NC(=O)c1cc(C)oc1C	0.759	-0.7	2.5	15.0%	i	-0.4	1.6
60	COCCNc1nc2c(c(=O)n(Cc3ccc(OC)cc3)c(=O)n2C)n1C	0.689	5.4	-0.4	23.9%	x	4.8	x
61	COC(=O)c1c(NC(=O)COC(=O)CNC(=O)c2ccco2)sc(C)c1C	0.678	4.3	-1.8	1.8%	x	1.1	x
62	CCCOc1ccc(C(=O)NCC(C)(C)N2CCOCC2)cc1	0.725	2.6	0.2	-3.6%	i	3.4	-1.7
63	N=c1c2c3c(sc2nc2n1CCCCC2)CCCCC3	0.742	x	-0.1	0.0%	x	4.0	x
64	Cc1ccc(S(=O)(=O)Nc2ccccc2)cc1C(=O)N1CCCC1	0.701	u	-1.3	x	i	-0.4	-6.6
65	Cc1cccc(NC(=S)NCCN2CCOCC2)c1C	0.737	u	0.1	-13.9%	x	3.8	x
66	CCOC(=O)C1=NNC2(CC(=O)N(c3cc(C)cc(C)c3)C2=O)C1 (stereo unspecified)	0.681	-0.4	-0.7	-0.1%	i	2.8	-1.2
67	CC(Oc1ccc2ccc(=O)oc2c1)C(=O)NC(Cc1c[nH]c2ccc(O)cc12)C(=O)O (stereo unspecified)	0.749	-0.1	-3.6	x	i	0.8	-1.8
68	Cc1cc(NC(=O)CSc2nnc(-c3ccccc3C)n2C)no1	0.67	x	1.4	-3.1%	i	-3.3	1.3
69	CN1CCN(C(c2cccc(C(F)(F)F)c2)c2nnnn2C(C)(C)C)CC1 (stereo unspecified)	0.721	u	3.2	2.9%	x	0.8	x
70	O=C(Nc1cccc(O)c1)c1cccc(C(=O)Nc2cccc(O)c2)c1	0.651	-1.1	5.2	x	i	3.5	-3.9
71	N#Cc1cccc(OC(=O)C2CCN(C(=O)c3ccc(F)cc3)CC2)c1	x	x	-0.4	0.9%	i	x	-4.7
72	Cc1nc(-c2ccc([N+](=O)[O-])cc2)nc2[nH]ccc(=O)c12	0.663	-1.1	2.2	-4.7%	i	2.1	-6.6
73	COc1ccc(/C=N/N=C2\SC(CC(=O)O)C(=O)N2c2ccccc2)c(OC)c1 (stereo unspecified)	x	1.5	-0.4	-6.1%	i	x	3.1
74	COc1ccc(NC(=O)COC(=O)c2cc(C)oc2C)c([N+](=O)[O-])c1	0.691	x	7.3	-10.2%	i	2.6	0.1
75	CCOc1ccc(CN2C(=O)CCC2(C)C(=O)NCc2cccnc2)cc1 (stereo unspecified)	0.723	-2.2	-1.6	-3.3%	i	3.8	0.6
